Bioassay records as filed in PubChem BioAssay.
Cruzain noTriton – cruzain (T. cruzi) inhibition without detergent. purified cruzain, Z-FR-AMC fluorescence, no detergent. Potency, µM, inactives show max response, negative = inhibition, usual class: inhibitors. 200,000 tested, 2.3% active. AID 1476; active = well fitted curve in the direction sought with a large enough effect; inconclusive = small, poorly fitted or top-dose-only effect, or another doubt; inactive = no such curve, though single readings can be large; an effect the other way counts as inactive or inconclusive;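 note: plate controls were enzyme without inhibitor for no effect and buffer without enzyme for full effect; nearly all actives have a fitted effect of over 40% in size; top concentration of the series not given in the record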
Target sequence (P25779 123-467 limits assumed): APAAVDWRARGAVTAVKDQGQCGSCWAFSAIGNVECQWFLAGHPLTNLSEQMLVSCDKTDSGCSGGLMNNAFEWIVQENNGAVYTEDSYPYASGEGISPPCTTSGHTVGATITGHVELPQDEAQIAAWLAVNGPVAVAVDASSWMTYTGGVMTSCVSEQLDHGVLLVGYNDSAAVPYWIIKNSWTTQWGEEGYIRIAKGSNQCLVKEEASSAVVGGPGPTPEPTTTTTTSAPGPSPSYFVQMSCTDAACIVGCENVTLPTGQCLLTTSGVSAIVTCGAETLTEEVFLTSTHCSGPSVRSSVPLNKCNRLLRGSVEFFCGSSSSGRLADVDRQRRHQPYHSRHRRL
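Purified cruzain at 1.5 nM, pre-incubated 15 min with compound at room temperature in 100 mM sodium acetate pH 5.5, 5 mM DTT, 0.00005% Triton X-100. Reaction started with 2 uM Z-FR-AMC; AMC fluorescence increase over 60 s gives rate.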
Cruzain Triton – cruzain (T. cruzi) inhibition with detergent; P25779; purified cruzain, Z-FR-AMC fluorescence, 0.01% Triton; Potency, µM, for inactives: max response, negative = inhibition, actives largely listed as inhibitors; 200,000 tested, 0.43% active; AID 1478; active = well fitted curve in the direction sought with a large enough effect; inconclusive = small, poorly fitted or top-dose-only effect, or another doubt; inactive = no such curve, though single readings can be large; an effect the other way counts as inactive or inconclusive;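 note: plate controls were neutral wells for no effect and buffer without enzyme for full effect; nearly all actives have a fitted effect of over 40% in size; top concentration of the series not given in the record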
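Compounds were screened in titration against cruzain (1.5 nM) with 0.01% Triton X-100 to counter colloidal aggregation. Activity was the AMC fluorescence increase over 60 s after adding 2 uM Z-FR-AMC at pH 5.5.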
SARS PLpro yeast – SARS-CoV PLP inhibition in yeast. S. cerevisiae expressing SARS-CoV PLpro, growth rescue; control for the full effect not named in the record. Potency, µM (series often up to 32.9 µM), inactives show at the highest dose activity, positive = growth rescue. 330,000 tested, 0.19% active; note: 0% is about no effect; nearly all actives have a fitted effect of over 55% in size; growth read by luminescence after 48 h
RE007 growth inh – less growth of the S. pombe RE007 Vpr strain; S. pombe RE007 Vpr strain, BacTiter-Glo ATP luminescence, 24 h; control for the full effect not named in the record; Potency, µM (doses to about 92.2 µM), for the others: at the top dose activity change, negative = less growth; 360,000 tested, 0.21% active; AID 651644; active = well fitted falling curve with a large enough effect; inconclusive = small, poorly fitted or top-dose-only effect; inactive = no such curve, though single readings can be large or run the other way;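 note: % is set by controls: 0 for no effect and ±100 for the full control effect; nearly all actives have a fitted effect of over 50% in size; the assay follows cell death caused by Vpr and the record does not say whether a fall means rescue or toxicity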
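Fission yeast RE007 carrying one integrated HIV-1 vpr copy, seeded at OD 0.01 in PMG+AL medium with 23 nL pinned compound. Grown 24 h at 30 degrees; viability read by BacTiter-Glo luminescence after 5 min.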
Marburg entry inh – blocks Marburg virus binding to or entry into cells. Marburg virus pseudotyped entry inhibition, cell reporter; control for the full effect not named in the record; about a third of the inactives were read at about 46 µM. Potency, µM (series often up to 37.8 µM), for inactives: at the top dose activity change, negative = inhibition, hits mostly inhibitors. 300,000 tested, 1.8% active. AID 540276; active = well fitted inhibition curve with a large enough effect; inconclusive = small, poorly fitted or top-dose-only effect, or effect the other way; inactive = flat fitted curve, though single readings scatter; tested in HEK293 cells; about a fifth of its hits are not listed in these tables; note: % is set by controls: 0 for no effect and ±100 for the full control effect; luciferase read-out
StopGo reporter – lowers the luciferase signal of an FMDV 2A StopGo reporter; human cells with a luciferase reporter of 2A StopGo recoding; control for the full effect not named in the record; Potency, µM (series often up to 57.9 µM), inactives show at the top dose signal change, negative = less light; 410,000 tested, 1.2% active; AID 1159524; active = well fitted falling curve with a large enough effect; inconclusive = small, poorly fitted or top-dose-only effect; inactive = no such curve, though single readings can be large or run the other way; tested in HEK293T cells; note: % is set by controls: 0 for no effect and ±100 for the full control effect; nearly all actives have a fitted effect of over 45% in size; luciferase light after 4 h
NS1 function inh – blocks influenza NS1 protein function; S. cerevisiae slowed by influenza A NS1, growth recovery by OD600; Potency, µM (doses to about 46.1 µM), without a hit: top-dose activity, positive = more growth; 270,000 tested, 0.4% active; note: actives are rising curves; nearly all actives have a fitted effect of over 50% in size
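Compounds were scored for reversing the slow growth caused by influenza A NS1 in S. cerevisiae, measured by optical density at 600 nm. Assay medium contained 2% galactose at pH 6.0; NS1-free yeast of the same strain were the positive control.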
LASV entry inh – blocks Lassa virus binding to or entry into cells. Lassa virus pseudotype entry inhibition, cell reporter; control for the full effect not named in the record. Potency, µM (titrated, usually from 37.9 µM), for inactives: at the top dose activity change, negative = inhibition, usual class: inhibitors. 300,000 tested, 1.2% active. AID 540256; active means well fitted inhibition curve with a large enough effect; inconclusive means small, poorly fitted or top-dose-only effect, or effect the other way; inactive means flat fitted curve, though single readings scatter; tested in HEK293 cells; note: % is set by controls: 0 for no effect and ±100 for the full control effect; nearly all actives have a fitted effect of over 50% in size; luciferase read-out
Starred values were filed as active, the others as inactive; ? = inconclusive; . = no result given; & = joins results of further samples; [ ] = remark or other dose. Unless noted, calls come from the whole dose curve; as a rule, active means well fitted rising curve with a large enough effect; inconclusive means small, poorly fitted or top-dose-only effect; inactive means no such curve, though single readings can be large or run the other way. Potency is the fitted concentration of half-maximal effect.

SMILES	Cruzain noTriton	Cruzain Triton	SARS PLpro yeast	RE007 growth inh	Marburg entry inh	StopGo reporter	NS1 function inh	LASV entry inh
O=C(Nc1ccccc1C(=O)O)c1cc(S(=O)(=O)N2CCOCC2)cs1	.	.	2%	-18%	-15%[46.1 µM]	43%[activator]	-4%	1%[46.1 µM]
NC(CCCCCP(=O)(c1ccccc1)c1ccccc1)C(=O)O (stereo not given)	.	.	0%	4%	16%[46.1 µM]	-17%	0%	21%
O=C(Nc1ccc(N2CCCCC2)cc1)c1ccc2c(c1)OCCO2	7%	-2.4%	0%	0%	?	-22%	-15%	?
Cc1sc2nc(SCC(=O)NCCO)n(C)c(=O)c2c1C	0%	-1.1%	-7%	17%	?	-17%	-8%	4%
CC1CCN(C(=O)C2CCN(S(=O)(=O)c3cnc[nH]3)CC2)CC1	8%	7.6%	2%	6%	0%	6%	-6%	7%
CCc1ccc(C2c3[nH]c4ccccc4c3CCN2C(=O)c2ccc(=O)n(C)n2)cc1 (stereo not given)	.	.	-1%	7%	11µM*	-18%	17%	?
CN1C(=O)c2ccc(C(=O)NCc3ccccn3)cc2C1=O	.	.	6%	1%	20%[46.1 µM]	-1%	-2%	-10%[46.1 µM]
CC1CCCN(CCC(=O)Nc2ccc3c(c2)CCC3)C1 (stereo not given)	4%	8.5%	-18%	-2%	?	8%	-4%	-21%
COc1ccc(-c2noc(CSc3nnc(C)n3-c3ccc(C)cc3)n2)cc1OC	14%	-3.0%	.	.	-20%[46.1 µM]	?	.	?
COc1ccc(N(CC(=O)N/N=C(\C)CCc2ccccc2)S(=O)(=O)c2ccc(C)cc2)cc1	.	.	0%	-2%	.	-18%	?	.
Cc1ccc(C(=O)NC2CCN(CC(=O)Nc3cccc([N+](=O)[O-])c3)CC2)cc1	.	.	-1%	-3%	0.79µM*	-8%	-3%	-10%
O=C(Nc1ccc(SC(F)F)cc1)c1cc(-c2ccc3c(c2)OCCO3)on1	7.9µM*	0.1%	.	.	-19%[46.1 µM]	?	.	?
CCOC(=O)c1cn2nc(Oc3ccc(C(=O)OC)cc3)ccc2n1	.	.	0%	1%	-1%[14.2 µM]	-10%	-3%	0%
CC(=O)NC(=S)Nc1cccc([N+](=O)[O-])c1	.	.	-2%	2%	26%[46.1 µM]	-4%	7%	29%
CC(Oc1ccccc1)C(=O)Nc1cccc(F)c1 (stereo not given)	-1%	3.8%	-4%	-22%	-15%	13%	-8%	?
O=C(CC1Oc2ccccc2NC1=O)NC1CC1 (stereo not given)	-5%	4.0%	4%	.	0%	.	-1%	.
CCN1C/C(=C\c2cccc(C)c2)c2nc3ccccc3c(C(=O)O)c2C1	-7%	-2.0%	2%	.	0%	.	14%	.
O=C(c1ccccc1)N1N=C(c2ccccc2)CC1c1ccccc1O (stereo not given)	.	.	-4%	-12%	-29%[46.1 µM]	-18%	0%	?
CSc1cccc(NC(=O)c2ccc3c(c2)c(C)c(C)n3Cc2ccc(F)cc2)c1	16µM*	3.2%	.	.	.	-10%	.	-15%[46.1 µM]
CN1CCN(c2ccc(-c3cccc(NC(=O)COc4ccccc4)c3)nn2)CC1	.	.	4%	-16%	?	-13%	.	-17%
CC1(C)NC(C)(C)c2nonc2/C1=N\O	3%	6.7%	1%	-9%	-3%	-22%	8%	-7%
Nc1nonc1-n1nnc(C(=O)c2ccccc2)c1-c1ccccc1	-7%	-2.4%	-2%	8%	?	0%	-58%	17%
O=C(NCCc1ccc(C(F)(F)F)cc1)c1ccc(Cl)nc1	.	.	-4%	0%	.	-19%	-7%	.
Cc1cc(/C=N/NC(=O)c2nn(C)cc2Cl)c(C)n1-c1cccc(Br)c1	9%	-6.5%	-3%	-1%	?	-3%	4%	1%
COc1ccc(NC(=O)C2CCCN(c3ncnc4onc(C)c34)C2)cc1OC (stereo not given)	-12%	-1.7%	.	.	.	?	.	7%[46.1 µM]
O=C(N/N=C/C(Br)=C/c1ccccc1)C(O)c1ccccc1 (stereo not given)	.	.	-2%	0%	?	23%	-11%	?
COc1cc(/C=C/c2nc(C#N)c(N3CCCCC3)o2)cc(OC)c1OC	22%	-8.5%	.	.	5%[46.1 µM]	-9%	.	10%[46.1 µM]
CCOC(=O)c1nnn2c1nc(N(CC)CC)c1ccccc12	.	.	-1%	0%	18%[46.1 µM]	-20%	-2%	-8%
CC(=O)Nc1ccc(C2NC(=S)N(c3ccccc3C(F)(F)F)C(C)=C2C(=O)N2CCOCC2)cc1 (stereo not given)	.	.	-3%	-4%	-15%[46.1 µM]	-6%	.	-4%[46.1 µM]
[N-]=[N+]=NCCN1CCN(Cc2ccccc2)CCC1=O	.	.	8%	-2%	.	-11%	0%	.
CSC1=C(C#N)C(c2ccccc2Cl)C(C(C)=O)=C(C)N1 (stereo not given)	-9%	-5.3%	16%	6%	-1%	-18%	1%	-15%
CC1CCN(C(=O)COc2ccc(S(=O)(=O)N3CCOCC3)cc2)CC1	.	.	4%	0%	5%	-9%	.	6%
COc1ccc(C2(C(=O)NCc3ccccc3Cl)CCOCC2)cc1OC	.	.	-1%	-7%	?	-21%	-2%	-1%
COc1ccc(NC(=O)c2ccc(C)cc2)c(OC)c1	2%	-0.1%	-16%	-1%	?	80%[activator]	-5%	?
Cc1c(C(=S)Nc2ccccc2)cnn1-c1ccccc1	-6%	-3.1%	2%	20%	-9%	18%	-34%	1%
CC(=O)Nc1ncc(N=Nc2cccc(C(F)(F)F)c2)s1	.	.	0%	-12%	?	30%	0%	.
CC(C)NC(=O)C1CCCN(S(=O)(=O)c2ccc(-n3cnnn3)cc2)C1 (stereo not given)	-6%	-1.4%	7%	-3%	?	4%	9%	3%
COc1ccc(CN2CCC(Cc3ccccc3)CC2)c(C)c1C	.	.	-1%	6%	?	?	-11%	0%[46.1 µM]
Cc1ccc(NC(=O)Cn2c(=O)n(Cc3nc(C)no3)c(=O)c3cc4c(cc32)OCO4)c(C)c1	-1%	-2.5%	.	.	.	-17%	.	11%[46.1 µM]
CCCCSCCCNC(=O)CS(=O)Cc1nc(-c2cccc(C)c2)oc1C (stereo not given)	?	-4.2%	-2%	-11%[3.69 µM]	1%&-19%	-19%	-3%	6%
CN(c1ccc(OCC(=O)OCC(=O)Nc2ccc(F)cc2)cc1)S(=O)(=O)c1ccc(Cl)cc1	-1%	-5.0%	-18%	6%	15%	2%	-12%	21%
CCOC(=O)c1c(C)[nH]c(C)c1S(=O)(=O)N(C)CC(=O)NCc1ccc(Cl)cc1	30%	2.5%	.	.	.	-15%	.	-4%[46.1 µM]
CC(C)N(Cc1nc(-c2ccccc2)no1)C(=O)Cc1ccccc1	-5%	-1.7%	-1%	-1%	.	-9%	-53%	.
CC(=O)c1cccc(N2C(=NC(=O)C3CCCCC3)SC3CS(=O)(=O)CC32)c1 (stereo not given)	.	.	5%	14%	9%[46.1 µM]	-14%	-2%	28%[46.1 µM]
Cc1ccccc1-n1c(Cn2c(=O)sc3ccccc32)nnc1SCC(=O)NCC1CCCO1 (stereo not given)	5%	2.7%	14%	1%	-2%	-10%	-23%	.
Cc1nn(-c2ccccc2)c2nc(C3CC3)cc(C(=O)NCc3ccccc3Cl)c12	0%	-3.1%	.	.	.	13%	.	-13%[46.1 µM]
CCN(CC)S(=O)(=O)c1ccc(NC(=O)c2cnc(C)cn2)cc1	.	.	4%	-5%	.	-14%	2%	.
O=C(Nc1ccc2c(c1)OCCO2)c1cc2ccccc2o1	.	.	-11%	?	4µM*	-35%	.	7.9µM*
O=C1NN(c2ccccc2)C(=O)/C1=C/c1cccs1	?	-7.4%	-3%	.	1%	.	17%	0%
COc1ccc(CNC(=O)CSc2nnc(Cn3nnc4ccccc43)n2C)cc1	-3%	4.6%	4%	8%	-4%	.	0%	-2%
CC(=O)Oc1ccc(C(=O)Nc2cc(NC(=O)c3ccc(OC(C)=O)cc3)cc(C(=O)NC(C)(C)C)c2)cc1	?	-1.2%	1%	1%	-11%	-22%	8%	-9%
COC(=O)C(Cc1ccccc1)NC(=O)CSc1nc(N)cc(=O)[nH]1 (stereo not given)	-5%	-0.7%	2%	2%	9%	-4%	6%	0%
O=C1CCCC(=O)N1c1ccc(O)cc1	.	.	0%	11%	10%	-2%	5%	18%
COCC1CCCCN1C(=O)c1ccc(OC2CCN(Cc3ccccn3)CC2)cc1 (stereo not given)	.	.	?	-3%	?	-8%	-5%	2%
Cc1ccc(C)c(Cn2c(CO)nc3ccccc32)c1	-2%	2.0%	8%	65%	?	?	2%	-20%
Cc1ncc(CO)c2cc(C(N)=O)c(=Nc3ccccc3)oc12	3%	-0.8%	0%	2%	-1%	-14%	-7%	?
Cc1cc(C)cc(N2CC(C(=O)O)CC2=O)c1 (stereo not given)	0%	4.7%	5%	-6%	10%	-10%	7%	17%
Cc1ccc(C(=O)N2CCCC(CCC(=O)N3CCN(c4ccccn4)CC3)C2)cc1C (stereo not given)	.	.	-5%	-2%	.	?	-7%	.
CCOC(=O)c1c(NC(=O)C2C3C=CC(C3)C2C(=O)O)sc2c1CC(C)CC2 (stereo not given)	.	.	0%	7%	?	-3%	-2%	2%[46.1 µM]
Cn1nnnc1SCC(=O)Nc1ccccc1Cc1ccccc1	-4%	9.7%	-3%	12%	?	19%	-2%	0%

Remaining list, next part.
SMILES	Cruzain noTriton	Cruzain Triton	SARS PLpro yeast	RE007 growth inh	Marburg entry inh	StopGo reporter	NS1 function inh	LASV entry inh
COc1ccc(NC(=O)CSc2nc(-c3ccco3)cc(C(F)(F)F)n2)cc1Cl	1%	-3.0%	.	.	?	?	.	?
COc1ccc(-c2cc(-c3ccccc3)nc(SCC(=O)Nc3nccs3)c2C#N)cc1	7.9µM*	-8.0%	19%	7%	-1%	-8%	10%	8%
Cc1ccc(-c2csc(NC(=O)N3CCOCC3)n2)cc1	.	.	0%	0%	?	-29%	-4%	-1%[46.1 µM]
N/C(=N\OC(=O)c1ccc(Br)o1)c1ccccn1	.	.	-21%	?	?	-11%	-34%	?
Cc1ccc(-n2c(C)cc(C(=O)COC(=O)C3=NNC(=O)CC3)c2C)cc1	-17%	-0.3%	-5%	47%	4%	-18%	18%	13%
